VACV Venus inh = inhibitors of vaccinia virus (Venus reporter). Vaccinia virus Venus reporter expression, fluorescence. Potency, µM (highest dose often 36.5 µM), for inactives: at the top dose activity change, negative = inhibition, most hits filed as inhibitors. 330,000 compounds, 0.46% hits. AID 720580; active means well fitted inhibition curve with a large enough effect; inconclusive means small, poorly fitted or top-dose-only effect; inactive means no such curve, though single readings can be large or run the other way; tested in A549 cells; note: nearly all actives have a fitted effect of over 30% in size; inactives centre near -10
Vaccinia mCherry = vaccinia inhibition (mCherry reporter); Vaccinia virus mCherry reporter infection, fluorescence; about a quarter of the inactives have no number; Potency, µM (top dose mostly 36.5 µM), inactives show at the highest dose activity change, negative = inhibition, most hits filed as inhibitors; 310,000 compounds, 0.63% hits; AID 720579; active = well fitted inhibition curve with a large enough effect; inconclusive = small, poorly fitted or top-dose-only effect; inactive = no such curve, though single readings can be large or run the other way; tested in A549 cells; note: nearly all actives have a fitted effect of over 35% in size; inactives centre near -10
The depositor's hits bear a star; i = inactive; ? = inconclusive; nt = no result given; & = joins results of further samples; [ ] = remark or other dose. % is set by controls: 0 for no effect and ±100 for the full control effect; potency is the fitted concentration of half-maximal effect.

No.	smiles	VACV Venus inh	Vaccinia mCherry
1	CN(C)C(=O)CSc1n[nH]c(=O)n1CCc1ccccc1	-9%	i
2	CCOc1ccc(C2C(C(N)=O)=C(C)Nc3nc(-c4ccc(OC)cc4)nn32)cc1 (centres undefined)	-5%	-1%
3	CCOC(=O)NCc1cc(-c2nn(C)c(=O)c3ccccc23)ccc1C	-6%	nt
4	O=C(O)c1ccc(N2C(=O)c3cccc(Oc4ccc(Cl)cc4)c3C2=O)cc1	4%	i
5	CS(=O)(=O)Nc1cccc(C(=O)OCCCOc2ccc(F)cc2)c1	-19%	-23%
6	COc1ccc(OC)c(/C=N/NC(=O)c2cc3c(OC)c(OC)ccc3[nH]2)c1	1%	i
7	CCOC(=O)[C@H]1[C@H]2COc3ccc(OC)cc3[C@@H]2N2C(=O)c3cc(OC)c(OC)cc3NC(=O)[C@@]12C	-18%	-5%
8	N#CCCN(CCC#N)C(=O)C1c2ccccc2Oc2ccccc21	-5%	i
9	O=c1c2ccccc2cnn1-c1ccc(Cl)nn1	-1%	-4%
10	CC(C)c1ccc(CN(Cc2ccco2)c2cnc(S(C)(=O)=O)nc2C(=O)Nc2ccc(F)cc2)cc1	-7%	-14%
11	COc1ccc(NC(=O)/C(C#N)=C/c2ccc(OCc3cc(=O)n4nc(C)sc4n3)cc2)cc1	-8%	-1%
12	COc1cc2c(c(OC)c1OC)-c1ccc(SC)c(=O)cc1C(NC(=O)c1ccccc1)CC2 (centres undefined)	?	-49%
13	COc1ccc(S(=O)(=O)N2CCC(C(=O)N3CCCCC3)CC2)cc1OC	-7%	-10%
14	COc1ccc(NC(=O)c2ccc(CNc3c(NC4CCCCC4)c(=O)c3=O)cc2)c(OC)c1	-5%&-8%	-3%&-10%
15	Cc1ccc(SCC(=O)OCC(=O)NCc2cccs2)cc1	6%	i
16	CSC1=NC2(C[C@H]2c2ccccc2)C(=O)N1C (some centres undefined)	-9%	i
17	Cc1nc(NC(=O)c2ccccc2)sc1C1(C)CC(c2c(Cl)cccc2Cl)=NO1 (centres undefined)	-30%	i
18	COc1ccccc1NC(=O)CN(c1ccc([N+](=O)[O-])cc1)S(=O)(=O)c1ccccc1	-6%	-9%
19	Cc1ccc(C(=O)NCCSc2c[nH]c3ccccc23)cc1C	-6%	-7%
20	O=C(Cc1ccccc1)Nc1ccccc1C(=O)O	-3%	0%
21	COc1ccccc1NC(=O)Nc1nc(CC(=O)NCc2ccccn2)cs1	-9%	i
22	CCc1cccc(CC)c1NC(=O)COC(=O)c1cccc(-c2ccc(OC(C)=O)cc2)c1	1%	-4%
23	Cc1cc2ccccc2cc1C(=O)c1ccccc1	0%	i
24	CCCCCOC(=O)C1[C@H]2C(=O)N(c3ccccc3CC)C[C@]23C=C[C@H]1O3 (some centres undefined)	-10%	nt
25	CC(=O)c1ccc(N2CCN(Cc3cc(=O)n4c(-c5ccccc5)csc4n3)CC2)cc1	-6%	-13%
26	COc1ccc(-c2cc(C(=O)NC3=NCCS3)c3ccccc3n2)cc1OC	-3%	-16%
27	Cc1ccc(NC(=O)c2c(C)oc3ncn(C)c(=O)c23)cc1F	7%	4%
28	O=C(CN1CCN(S(=O)(=O)c2ccccc2)CC1)NC1CC1	-8%	i
29	Fc1ccc(-[n+]2nc(Nc3ccccc3)sc2-c2ccc(OCc3ccccc3)cc2)cc1	-24%	-12%
30	O=C(NC1CCCCCCC1)c1ccc(CNc2c(N3CCOCC3)c(=O)c2=O)cc1	-11%	-3%
31	Cc1ccc(-n2c(SCC(=O)Nc3ccc4c(c3)OCO4)nnc2-c2cccs2)cc1	-18%	-24%
32	Cc1cccc(OCCC(=O)Nc2c(C)n(C)n(-c3ccccc3)c2=O)c1	0%	-12%
33	Cc1ccsc1-c1nc(CSCC(=O)N2CCN(c3ccccc3)CC2)c(C)o1	-19%	?
34	COc1ccccc1NC(=O)C1=C(C)Nc2nc(SCc3cccc(F)c3)nn2C1c1ccc(C(=O)O)cc1 (centres undefined)	-12%	i
35	CC(C)CNc1ncnc2c1ncn2[C@H]1CN(C2CCCC2)C[C@@H](CO)O1	1%	2%
36	CCC(CC)NC(=O)c1cccc([N+](=O)[O-])c1C	0%	-15%
37	COc1ccc2c(c1)[nH]c1c(=O)n(CCCn3ccnc3)cnc12	-23%	-20%[1.46 µM]
38	CCOC(=O)c1cc(S(=O)(=O)NCC2CCN(Cc3cccc(C)c3)CC2)cn1C	-26%	-4%
39	Cc1ccsc1/C=N/N1CCN(c2ccccn2)CC1	8%	-20%
40	Cc1nc2ccccn2c1C(=O)CSc1ccccc1	-9%	i
41	CN(C)S(=O)(=O)c1ccc(Cl)c(-c2nnc3n2CCCCC3)c1	-1%	-1%
42	O=[N+]([O-])c1ccc(C=Nc2cccc3ccccc23)s1	-6%	-19%
43	COc1ccc(C)cc1S(=O)(=O)NC(C)c1cnn(-c2ccccn2)c1C (centres undefined)	-3%	-8%
44	COc1ccc(NC(=S)N2CCCC(CO)C2)c(OC)c1 (centres undefined)	-5%	-1%
45	CCOC(=O)CNC(=O)CSc1nnc(-c2ccccc2OC)n1CC	26%	nt
46	COCCN1C(=O)N[C@@H](c2ccccc2)[C@H](C(=O)OC)[C@H]1C	3%	i
47	O=C(CSc1nc2ccc(Cl)cc2[nH]1)Nc1ccc2c(c1)CCC2	-13%	-7%
48	COn1c(-c2ccccc2)nc2c1CCc1nonc1-2	-11%	nt
49	COc1ccc(C(=O)CC(=O)C(=O)Nc2ccc(Cl)cc2)cc1	-5%	i
50	c1ccc(NCCC2OCC3(CO2)COC(CCNc2ccccc2)OC3)cc1 (centres undefined)	0%	?

Rewritten with two lines to a compound: entries from further up
Every second line gives: VACV Venus inh	Vaccinia mCherry
#23 Cc1cc2ccccc2cc1C(=O)c1ccccc1
    0%	i
#24 CCCCCOC(=O)C1[C@H]2C(=O)N(c3ccccc3CC)C[C@]23C=C[C@H]1O3 (some centres undefined)
    -10%	nt
#25 CC(=O)c1ccc(N2CCN(Cc3cc(=O)n4c(-c5ccccc5)csc4n3)CC2)cc1
    -6%	-13%
#26 COc1ccc(-c2cc(C(=O)NC3=NCCS3)c3ccccc3n2)cc1OC
    -3%	-16%

Further entries:
No.	smiles	VACV Venus inh	Vaccinia mCherry
51	COc1ccc(-c2sc3ccc(N4CCOCC4)cc3c2C#CC(C)(C)O)cc1	-29%	i
52	CCC(=O)Nc1cccc(-c2cn3c(C)csc3n2)c1	-8%	-9%
53	COc1ccc(N2C(=O)CC(N(CCc3ccccc3)C(=O)c3ccccc3)C2=O)cc1 (centres undefined)	-11%	i
54	O=S(=O)(N1CCOCC1)N1CCN(c2ccccc2F)CC1	-2%	-10%
55	C[C@H](CO)N1C[C@H](C)[C@@H](CN(C)Cc2ccc(Cl)c(Cl)c2)Oc2c(NC(=O)CCC(F)(F)F)cccc2C1=O	?	?
56	Cc1c(C(=O)Nc2ccccc2)cnn1-c1ccccc1	-11%	-22%
57	O=C(O)c1cccc2c1C(=O)N(c1ccccc1)C2	-3%	i
58	CCNC(=O)C1(C)CCCN(C(=O)c2ccc3c(c2)C(C)(C)CCC3(C)C)C1 (centres undefined)	-6%	i
59	COc1cc(/C=C/C(=O)OCC(=O)NCCCc2ccccc2)cc(OC)c1OC	-9%	-11%
60	CCOC(=O)C1=C[C@@H](C(C)(C)C)N(S(=O)(=O)c2ccc(C)cc2)[C@H]1c1ccc(F)cc1	4%	20%
61	COc1cccc(-c2nc(CS(=O)(=O)CC(=O)NCc3cccc(Cl)c3)c(C)o2)c1	-9%	-8%
62	COc1cc(C(=O)O/N=C(\N)c2ccncc2)cc(OC)c1OC	-11%	i
63	Cc1ccc(C(NC(=O)NN2CCN(C)CC2)C(Cl)Cl)cc1F (centres undefined)	11%	?
64	O=Cc1ccc(N2Cc3ccccc3C2)cc1	-1%	-8%
65	Cc1cccc(C2c3[nH]c4ccccc4c3CCN2C(=O)Cc2n[nH]c(C)n2)n1 (centres undefined)	-6%	i
66	COc1ccc(-n2nnnc2C2CCN(S(=O)(=O)c3cc(Cl)ccc3OC)CC2)cc1	?	-29%
67	CSCC[C@H](NC(=O)OC(C)(C)C)c1nnc(SCC(=O)Nc2ccc(C)cc2C)o1	-38%	nt
68	COc1ccc(OC)c(-c2cc(Cl)c3c(c2)CC(CNC(=O)/C=C/c2ccccn2)O3)c1 (centres undefined)	-8%	-2%
69	Cc1nn(Cc2ccc(C(=O)N3CCOCC3)o2)c(C)c1Br	-5%	-13%
70	CCC(C)[C@H](NC(=O)Nc1cccc(Cl)c1)C(=O)O (some centres undefined)	-13%	nt
71	O=S(=O)(c1ccc2ccccc2c1)N1CCNCC1	-10%	i
72	CCN(C(=O)c1ccc(NC(=O)Cc2ccccc2)cc1)c1ccccc1	-12%	-22%
73	Cc1cccc(N2CCN(C(C(=O)NCc3ccccc3)c3ccco3)CC2)c1C (centres undefined)	-4%	?
74	CC(C)(C)OC(=O)N1CCC(c2c(C(=O)NCc3ccco3)cnn2-c2ccccc2)CC1	-12%	-5%
75	CS(=O)(=O)c1cnc(-c2ccccc2)nc1Sc1ccc(F)cc1	-13%	-5%

Another view of 4 compounds above.
66) COc1ccc(-n2nnnc2C2CCN(S(=O)(=O)c3cc(Cl)ccc3OC)CC2)cc1
67) CSCC[C@H](NC(=O)OC(C)(C)C)c1nnc(SCC(=O)Nc2ccc(C)cc2C)o1
68) COc1ccc(OC)c(-c2cc(Cl)c3c(c2)CC(CNC(=O)/C=C/c2ccccn2)O3)c1 (centres undefined)
69) Cc1nn(Cc2ccc(C(=O)N3CCOCC3)o2)c(C)c1Br

assay / entry | 66 | 67 | 68 | 69
VACV Venus inh | ? | -38% | -8% | -5%
Vaccinia mCherry | -29% | nt | -2% | -13%

(continued)
No.	smiles	VACV Venus inh	Vaccinia mCherry
76	CCOC(=O)c1ccc(CN(Cc2ccc(Br)cc2)S(=O)(=O)c2cccc(C(F)(F)F)c2)cc1	-10%	-7%
77	COc1ccc(OC)c(S(=O)(=O)N2CCC(C(=O)NC3CCCC3)CC2)c1	-4%	-16%
78	CCOc1ccc2ncc(S(=O)(=O)c3ccc(C)cc3)c(N3CCC4(CC3)OCCO4)c2c1	?	-29%
79	C(=N\N1CCOCC1)/c1cccs1	0%	i
80	Cc1cc2oc(=O)cc(CSc3nnc(C)n3N)c2cc1C(C)C	-3%	nt
81	Cc1ccccc1OC1(C)CCN(Cc2ccc3ccccc3c2)C1 (centres undefined)	-4%	1%
82	Cc1cc(C)cc(N(C(=O)CNC(=O)c2ccco2)C(C(=O)NC2CCCC2)c2ccncc2)c1 (centres undefined)	-1%	-8%
83	COc1ccc(-c2nnc(SCC(=O)Nc3ccc(F)cc3)s2)cc1	-12%	-5%
84	O=C(COc1ccc(Cl)cc1)Nc1ccc2c(c1)OCO2	-6%	i
85	O=C(Cc1csc(NC(=O)Nc2ccc(Cl)cc2)n1)NCc1ccccn1	-30%	-16%
86	CCOc1ccc(C(C(=O)NC(C)(C)C)N(CCOC)C(=O)CCC(=O)Nc2ccccn2)cc1 (centres undefined)	2%	1%
87	O=S(=O)(c1ccc(-c2csc(Nc3ccc(Br)cc3)n2)cc1)N1CCCC1	?	-28%
88	Cc1ccc(CSc2ncc(Cl)c(C(=O)Nc3sc4c(c3C(N)=O)CCCC4)n2)cc1	-13%	-17%
89	CSc1ccc(S(=O)(=O)N2CCC(C(=O)NCc3cccnc3)CC2)cc1	4%	-11%
90	O=C(c1cc(COc2ccc(F)cc2Cl)on1)N1CCC(c2ccncc2)CC1	-20%	-20%
91	COc1ccccc1N1CCN(C(=O)C(CC(C)C)NC(=O)C2CCCCC2)CC1 (centres undefined)	-6%	-19%
92	Nc1nnc(/C=C/c2ccccc2)s1	1%	i
93	O=C(CSc1nc(=O)n(CCCN2CCOCC2)c2c1CCCC2)Nc1ccc(Cl)cc1	-24%	-11%
94	O=C1CN(C(=O)COC(=O)C2CC(=O)N(Cc3ccco3)C2)c2ccccc2N1 (centres undefined)	7%	nt
95	Clc1ccc(OCCN2CCCCC2)cc1Cl	-7%	-8%
96	CC(=O)Nc1cccc(OCCCNC(=O)C2CCC2)c1	-5%	i
97	CCCCN(Cc1cc2cc(OC)ccc2[nH]c1=O)S(=O)(=O)c1ccc(C)cc1	-28%	?
98	COc1cc(/C=C/C(=O)OC[C@H]2O[C@H](OC3(CO)OC(CO)C(O)C3O)[C@H](O)[C@@H](O)[C@@H]2O)ccc1O (some centres undefined)	-5%	-21%
99	COc1ccc(/C=C/C(=O)OCC(=O)NCc2ccco2)c(OC)c1	-18%	i
100	CCOC(=O)C1CCCN(S(=O)(=O)CCNC(=O)c2ccccc2)C1 (centres undefined)	-10%	i
101	COc1ccc2c(c1OC)C(=O)OC2N1C(=O)CC[C@H]1C(=O)Nc1ccc2c(c1)OCO2 (some centres undefined)	2%	-6%
102	O=C(O)c1nonc1-c1nonc1C(=O)O	-3%	-16%
103	O=C(Nc1csnn1)OCc1ccccc1	-14%	i
104	CC(NS(=O)(=O)c1ccc2c(c1)c(=O)n(C)c(=O)n2C)C(=O)NC1CCCCC1 (centres undefined)	-4%[7.34 µM]	-3%[7.34 µM]
105	CCOC(=O)C1CCC(CN(Cc2ccc(OC)cc2)S(=O)(=O)c2ccc(C)cc2)CC1 (centres undefined)	3%	1%
106	COCCn1c(COc2cccc(OC)c2)nnc1SCC(=O)NC1CCCCC1	-3%	-1%
107	Cc1ccccc1NC(=O)CC(C)S(=O)(=O)c1ccc2c(c1)NC(=O)CO2 (centres undefined)	-11%	-9%
108	O=C(CC1N=C2c3ccccc3N=C(SCC(=O)Nc3cccc(Cl)c3)N2C1=O)NCc1cccs1 (centres undefined)	6%	-3%
109	O=C(CSc1nccn1Cc1ccc(F)cc1)NC1CCCC1	-14%&-22%	-13%
